Screening data: PubChem, National Center for Advancing Translational Sciences (NCATS)
PINK1 modulator = A Quantitative High throughput Screen to Identify Chemical Modulators of PINK1 Expression | PINK1 immunofluorescence, high-content cytometry, 24 h | Potency, µM (highest dose often 76.6 µM), for inactives: at the highest dose activation (PINK1 increase), usual class: activators | hit rate 0.2% among 410,000 | AID 624263, 2012; active = well fitted activation curve with a large enough effect; inconclusive = small, poorly fitted or top-dose-only effect; inactive = flat fitted curve, though single readings scatter; cell line not stated here;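 note: potency is the fitted concentration of half-maximal effect; % of control where 0% means no effect; nearly all actives have a fitted effect of over 65% in size; a mitochondrial uncoupler was the plate control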
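Readout is PINK1 immunofluorescence, quantified alongside mitochondrial, cell and nuclear markers by laser-scanning microplate cytometry. Cells from a stable line were exposed to compound titrations (5 concentrations) for 24 hours, with CCCP controls.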
CtBP-E1A inh = qHTS Assay for Inhibitors of the CtBP/E1A Interaction | AlphaScreen GST-E1A/His-CtBP binding, 1536-well; hits give low values; control for the full effect not named in the record | AID 651724, 2012 | activity change, % (no concentration beside the values) | hit rate 0.49% among 340,000; in the data active means activity change below about -65%; inconclusive means about -30% to -65%; inactive means above about -30%; note: % is set by controls: 0 for no effect and ±100 for the full control effect; compound concentration not given in the record
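Steps: dispense buffer (Tris pH 8.0, NaCl 300 mM, TCEP 1 mM, BSA, Tween 20); add 5X protein mix (GST-E1A, His-CtBP, 125 nM each); pin 23 nL compound; 2 h at 37 °C, dark; add 5X beads (50 ug/mL); 1 h; read.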
D2 ag = Beta-Arrestin HTS for Positive Allosteric Modulators of the Human D2 Dopamine Receptor: Agonists | D(2) dopamine receptor (Homo sapiens), P14416 | DiscoveRx PathHunter D2 beta-arrestin, luminescence, 90 min; 100% = 57 uM dopamine signal | activation, % (concentration not given with the values) | hit rate 0.084% among 360,000 | AID 624465, 2012; in the data active = activation above about 40%; inconclusive = about 15% to 40%; inactive = below about 15%; note: compound concentration not given in the record; the text of the record calls up to 30% inactive
Target sequence (P14416 whole entry, looked up): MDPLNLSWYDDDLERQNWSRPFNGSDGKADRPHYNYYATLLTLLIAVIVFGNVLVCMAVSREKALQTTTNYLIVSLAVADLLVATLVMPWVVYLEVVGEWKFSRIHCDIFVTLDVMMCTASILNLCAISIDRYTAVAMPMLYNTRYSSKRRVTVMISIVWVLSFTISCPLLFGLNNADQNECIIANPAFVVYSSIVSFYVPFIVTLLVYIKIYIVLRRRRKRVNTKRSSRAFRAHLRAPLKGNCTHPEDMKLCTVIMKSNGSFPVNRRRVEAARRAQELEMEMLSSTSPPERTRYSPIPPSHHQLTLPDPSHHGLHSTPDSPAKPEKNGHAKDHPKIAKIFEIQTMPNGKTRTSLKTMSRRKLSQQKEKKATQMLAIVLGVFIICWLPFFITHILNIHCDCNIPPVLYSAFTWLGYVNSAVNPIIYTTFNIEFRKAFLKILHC
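DiscoveRx PathHunter D2 beta-arrestin cells (2,100/well) attached overnight, then compound-stimulated 90 min at 37 C in HBSS/10 mM HEPES/0.1% Tween-20 buffer; beta-galactosidase complementation read by luminescence after 1 h at ambient temperature. Dopamine 57 uM final (EC100) as control.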
Six1-Eya2 inh = qHTS Assay for Inhibitors of the Six1/Eya2 Interaction. Homeobox protein SIX1 (Homo sapiens) + Protein phosphatase EYA2 (Homo sapiens), …. AlphaScreen GST-Six1/His-Eya2 binding, biochemical; hits give low values; control for the full effect not named in the record. activity change, % (no concentration beside the values). hit rate 0.56% among 360,000; in the data active = activity change below about -65%; inconclusive = about -30% to -65%; inactive = above about -30%; note: % is set by controls: 0 for no effect and ±100 for the full control effect; compound concentration not given in the record
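AlphaScreen with GST-Six1 and His-Eya2 (5X mix: 250 nM and 500 nM), glutathione donor and nickel acceptor beads; buffer 50 mM Tris pH 8.0, 300 mM NaCl, 1 mM TCEP; 1 h at 37 C in the dark.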
D2 potentiator = Beta-Arrestin HTS for Positive Allosteric Modulators of the Human D2 Dopamine Receptor: Potentiators; DiscoveRx D2 beta-arrestin cells, luminescence, 90 min; 100% = 57 uM dopamine signal; hit rate 0.23% among 360,000; potentiation, % (no concentration beside the values); active = potentiation of 50% or more; inconclusive = 30% to 50%; inactive = 30% or less;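 note: compound concentration not given in the record; tested on top of an EC20 dose of dopamine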
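PathHunter D2 cells, attached overnight at 37 deg C, received compound in DMSO plus dopamine at EC20 (50 nM final) for 90 min at 37 deg C. Beta-arrestin recruitment was read as luminescence after 1 h with detection reagent at ambient temperature.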
TRPML1 agonist = qHTS for Agonists of the Human Mucolipin Transient Receptor Potential 1 (TRPML1); hit rate 0.12% among 410,000; AID 624414, 2012; activation, % (no concentration beside the values); TRPML1-expressing cells, Ca2+ dye fluorescence, FDSS; host cell line not named in the record; reference of the full effect not given here; in the data active = activation above about 50%; inconclusive = about 30% to 50%; inactive = below about 30%; note: 0% is about no effect; the text of the record puts the active cut at 80%
Target sequence (Q9GZU1 whole entry, looked up): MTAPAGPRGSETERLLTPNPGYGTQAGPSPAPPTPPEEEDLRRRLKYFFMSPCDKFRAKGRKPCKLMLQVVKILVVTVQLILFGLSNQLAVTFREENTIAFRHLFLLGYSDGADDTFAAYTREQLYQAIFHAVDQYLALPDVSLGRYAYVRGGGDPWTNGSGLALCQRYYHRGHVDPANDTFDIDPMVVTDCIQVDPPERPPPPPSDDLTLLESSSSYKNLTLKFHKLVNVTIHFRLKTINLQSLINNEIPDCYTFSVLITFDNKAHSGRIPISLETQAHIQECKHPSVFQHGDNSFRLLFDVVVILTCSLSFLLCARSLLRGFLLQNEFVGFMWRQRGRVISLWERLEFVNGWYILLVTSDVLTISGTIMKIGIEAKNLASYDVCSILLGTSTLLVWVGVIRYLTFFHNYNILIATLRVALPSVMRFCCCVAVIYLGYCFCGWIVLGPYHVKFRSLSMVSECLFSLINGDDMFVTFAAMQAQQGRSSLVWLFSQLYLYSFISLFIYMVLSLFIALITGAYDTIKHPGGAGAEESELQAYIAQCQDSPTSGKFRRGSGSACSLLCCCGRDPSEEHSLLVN
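Kinetic FDSS Ca2+ read in Tet-induced TRPML1-DL cells (ABD Ca8 dye plus quencher, 45-90 min RT loading): baseline, then compound, then 110 s agonist window; EC80 agonist 54-4 at 4uM final added afterwards for a 110 s antagonist window.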
An asterisk follows results filed as active; ? = inconclusive; / = not tested or not shown; [ ] = another dose, or the depositor's remark.

SMILES	PINK1 modulator	CtBP-E1A inh	D2 ag	Six1-Eya2 inh	D2 potentiator	TRPML1 agonist
COc1ccc(-c2nc(CSCC(=O)NC3CCCc4ccccc43)c(C)o2)cc1OC (stereo not given)	-1.3%	-7	-2.3	-8	?	1.4
O=C(CSc1nc2nc(-c3cccs3)cc(C(F)(F)F)c2c(=O)[nH]1)NCc1ccco1	-0.6%	-13	-4.0	?	-11	0.6
CC(NC(=O)C1CCC(CNc2c(N3CCCCC3)c(=O)c2=O)CC1)c1ccccc1 (stereo not given)	2.9%	?	-3.7	?	-8	1.0
COc1ccc(N(CC(=O)NC2CCCCC2)C(=O)CNC(=O)c2ccco2)cc1	-0.5%	5	-3.2	5	-6	1.0
O=C1NC(=O)C2(CCC(C3CCCCC3)CC2)N1 (stereo not given)	2.5%	-1	-1.0	-5	-3	-0.3
Cc1cc(C)n(Cc2ccc(NC(=O)c3ccc(COc4ccccc4Br)cc3)cc2)n1	-2.8%[38.3 µM]	-5	6.4	-6	-2	1.4
CCS(=O)c1scc(-c2ccc(Cl)cc2)c1C#N (stereo not given)	0.2%	/	-3.2	2	-20	-0.7
COc1ccc(OC)c(C2C(C(C)=O)=C(O)C(=O)N2CCC(=O)O)c1 (stereo not given)	-3.2%[38.3 µM]	5	0.6	3	-7	-0.3
CCS(=O)(=O)Nc1cccc(-c2cn3c(n2)SCC3)c1	-0.6%	/	0.1	0	-7	0.9
CCN(CC)CCCN1C=C2C(=O)C(C)(OC(=O)CCc3ccccc3)C(=O)C=C2C=C1c1ccc(C#N)cc1 (stereo not given)	-0.2%	/	0.2	1	-7	0.5
CCC(C)NC(=O)c1ccc(C2SCC(=O)N2Cc2ccccc2)cc1 (stereo not given)	2.2%	/	-0.5	4	-4	1.5
O=C(Oc1ccccc1)N1CCCC1	0.2%	/	-6.3	4	-4	1.3
Oc1ccc(Br)cc1-c1cc(-c2ccccc2)n[nH]1	4.0%	9	-3.8	0	-6	-0.6
C=CCN1C(=O)c2ccc(C(=O)NCC(=O)Nc3c(C)cc(C)cc3C)cc2C1=O	1.0%	/	-1.6	3	-2	-1.6
COc1ccc(N2C(=O)Cc3ccccc3C2=O)cc1	2.6%	2	3.1	-1	-2	-1.3
COc1ccc(/C(N)=N/OC(=O)CCCN2C(=O)c3ccccc3C2=O)cc1OC	0.4%	13	1.6	6	-3	0.0
COc1ccc(NC(=O)c2cc3c(=O)n(C)c4ccccc4c3n2C)cc1Cl	2.5%	8	1.7	8	-6	-0.9
CCN(c1ccc(OC)cc1)S(=O)(=O)c1nnc(NC(=O)C(C)C)s1	10%	-3	1.5	1	-4	2.5
Cc1cc(C(=O)Nc2ccncc2)c2ccccc2n1	-0.6%	1	-0.7	1	-14	-0.5
O=C(/C=C/c1ccncc1)c1cc(Cl)ccc1O	0.5%	3	2.9	-6	-3	1.0
CSc1ncccc1C(=O)OCC(=O)c1cc2ccccc2o1	?	8	-2.6	8	-2	1.1
CCOCCCN(C(=O)c1ccco1)C(C(=O)NC1CCCC1)c1cccc(OC)c1OC (stereo not given)	-0.4%	11	-3.1	7	-12	0.1
C[C@@H]1CN(C(=O)c2nc3ccc(Cl)cn3c2CNCC[C@@H]2C[C@@H]3C=C[C@H]2C3)C[C@H](C)O1	4.1%	-11	-2.8	13	-24	0.8
C#CCN(C[C@@H]1[C@@H](OC(=O)NCc2ccc(OC)c(OC)c2)[C@@H](OC(=O)NCc2ccc(OC)c(OC)c2)CN(C(=O)OC(C)C)N1C(=O)OC(C)C)S(=O)(=O)c1ccc(C)cc1	5.4%	-5	-7.6	-1	0	0.7
O=S(=O)(NCc1ccco1)N1CCOCC1	3.8%	2	-3.3	-6	-25	0.2
S=C(Nc1ccccc1)N1CCC(Cc2ccccc2)CC1	-1.5%	-1	0.4	-15	-9	1.6
COC(=O)c1ccccc1NC(=O)c1ccc(COc2ccc(C)c(C)c2)o1	2.1%	13	-1.1	-1	-1	0.0
O=C(CSc1ccc([N+](=O)[O-])cc1)NNC(=O)c1ccccc1F	2.0%	0	8.4	-10	-3	2.2
COc1ccccc1NS(=O)(=O)c1cccc(C(=O)OCC(=O)NC2CC2)c1	-2.5%	8	-4.3	3	-32	0.5
CCN1CCN(CC(=O)Nc2cc(C)c(C)cc2[N+](=O)[O-])CC1	-0.1%	-7	-3.2	-2	-1	1.7

Arranged by heavy-atom count (highest first): three of the compounds above
SMILES	PINK1 modulator	CtBP-E1A inh	D2 ag	Six1-Eya2 inh	D2 potentiator	TRPML1 agonist
C#CCN(C[C@@H]1[C@@H](OC(=O)NCc2ccc(OC)c(OC)c2)[C@@H](OC(=O)NCc2ccc(OC)c(OC)c2)CN(C(=O)OC(C)C)N1C(=O)OC(C)C)S(=O)(=O)c1ccc(C)cc1	5.4%	-5	-7.6	-1	0	0.7
COc1ccc(/C(N)=N/OC(=O)CCCN2C(=O)c3ccccc3C2=O)cc1OC	0.4%	13	1.6	6	-3	0.0
S=C(Nc1ccccc1)N1CCC(Cc2ccccc2)CC1	-1.5%	-1	0.4	-15	-9	1.6

Next part.
SMILES	PINK1 modulator	CtBP-E1A inh	D2 ag	Six1-Eya2 inh	D2 potentiator	TRPML1 agonist
CCCCn1nc(C(=O)Nc2c(C)n(C)n(-c3ccccc3)c2=O)c2ccccc2c1=O	1.1%	0	-1.2	4	0	1.6
CN(c1ccccc1)S(=O)(=O)c1cccc(NC(=O)c2cncc(Br)c2)c1	?	-13	-1.1	-2	0	/
O=C(NCCc1ccc(F)cc1)Nc1ccc([N+](=O)[O-])cc1	?	-6	-3.1	-2	-23	2.6
O=C(NCCc1ccccc1)C(c1ccccc1)N(C(=O)c1csnn1)C1CC1 (stereo not given)	5.1%	-8	-1.9	-7	-7	0.0
O=P(COCCOCCOCP(=O)(c1ccccc1)c1ccccc1)(c1ccccc1)c1ccccc1	0.5%	4	-0.9	8	-1	-0.3
CC1(C)Cc2c(sc3nc(-c4cc5ccccc5o4)n(N)c(=O)c23)CO1	7.2%[38.3 µM]	14	-3.6	7	-1	0.6
COc1ccc(/C=C/C(=O)OC(C)C(=O)c2ccccc2)cc1OC (stereo not given)	2.7%	-1	3.3	0	10	0.7
Cc1cc(C)n2cc(COc3ccc4ccccc4c3)nc2n1	3.8%	-3	-4.3	7	3	1.1
O=C(Nc1ccc(NC(=O)C2CCCCC2)nc1)c1cccc(F)c1	11%	4	-3.5	4	-14	8.9
O=C(NCCCn1ccnc1)C(=O)NCC1OCCN1S(=O)(=O)c1cc(F)ccc1F (stereo not given)	-0.3%	-71*	1.1	-72*	-2	0.3
COc1ccc(/C=C/C(=O)c2c(O)cc(C)oc2=O)c(OC)c1	-1.0%	-2	-6.9	-7	-24	5.3
C(=N\Nc1nc2ccccc2[nH]1)/c1cccc2nccnc12	1.4%	-28	2.5	-24	0	-0.2
Cc1cc(C(=O)Nc2cc(C(C)(C)C)on2)c(C)o1	1.5%	/	-2.7	15	-12	1.3
C=CCC(Nc1ccccc1)C12C=CC(O1)C(C(=O)OC)=C2C(=O)OC (stereo not given)	1.1%	1	-0.4	-1	-34	-1.0
COc1ccc(CCNC(=O)C(=O)NCC2OCCN2S(=O)(=O)c2ccc3c(c2)OCCO3)cc1OC (stereo not given)	1.7%	-1	0.5	-2	8	0.0
COc1ccc2oc(C)c(C(=O)NN)c2c1	1.9%[38.3 µM]	-4	2.4	0	1	0.8
CC(C)C[C@H]1CN(CCCC[C@H]2CNC(=O)C(=O)N2CCc2ccccc2)C(=O)C(=O)N1CC1CCCCC1	-1.1%	3	/	12	/	-0.5
O=C(Cc1ccc(-n2cccc2)cc1)NC1CCCCC1	2.6%	-5	2.5	-5	3	1.1
CC(C)c1nnc(NC(=O)C2CCCN2C(=O)Nc2ccccc2)s1 (stereo not given)	1.3%	3	-2.5	12	-6	0.7
CN(C)CCNC(=O)c1ccccc1	-1.7%[38.3 µM]	44	0.0	20	0	-0.5
CC(C)CCNC1=CC(=O)CC(c2ccccc2)C1 (stereo not given)	?	2	-0.4	11	-16	1.8
COc1ccccc1-n1cccc1C=O	-0.6%	/	2.4	-4	-10	-0.5
COc1ccc(-c2nc3ncccc3o2)cc1NC(=O)c1ccco1	6.1%	-1	-0.6	4	-3	0.7
COc1cc2c(c(OC)c1OC)-c1ccc(OC)c(=O)cc1C(NC(=O)c1ccccc1)CC2 (stereo not given)	12%	1	-2.3	-2	11	0.4
CCCN(C(=O)CCOc1ccc(C(C)(C)C)cc1)c1c(N)n(Cc2ccccc2)c(=O)[nH]c1=O	6.7%	-23	-0.9	4	5	-0.3
CCc1cccc(CC)c1NC(=S)NCc1nc2ccccc2[nH]1	0.5%	-1	-2.8	0	-17	-1.0
Cc1cccc(N2CC(C(=O)Nc3ccc4c(c3)OCCO4)CC2=O)c1C (stereo not given)	1.8%	-4	-3.5	4	-3	0.5
COCc1[nH]c(=S)c(C#N)cc1C(=O)OC	0.3%	-17	-2.0	-4	-8	0.1
COc1ccc(NC(=O)CN(C)C(=O)CCCc2nc3ccccc3c(=O)[nH]2)cc1	3.1%	1	-3.5	-1	-13	-1.0
O=S(=O)(NCCS(=O)(=O)N1CCN(c2ccc(F)cc2)CC1)c1ccccc1	-1.2%	0	-2.7	-1	-15	-0.3
CC1=CC(C)(C)N2C(=O)C3(SCC(=O)N3c3ccc(F)cc3)c3cc(C)cc1c32 (stereo not given)	?	-9	-1.5	-15	-18	5.7
COc1ccc(Cl)cc1N=Cc1c(O)c2ccccc2oc1=O	1.0%	2	-1.1	13	-3	0.4
N#Cc1cn(Cc2ccccc2)c(=O)[nH]c1=O	1.6%	-4	3.4	-6	-4	0.0
COC(=O)NNS(=O)(=O)c1ccc(C)cc1	0.5%	0	2.2	2	-2	1.0
CCOC(=O)C1CCCN(C/C=C/c2ccccc2[N+](=O)[O-])C1 (stereo not given)	-5.5%[38.3 µM]	6	2.1	-2	-18	-0.5
O=C(O)CCCNC(=O)Nc1ccccc1	-0.2%	5	-4.5	-3	-12	-0.6
O=C(Nc1cccc(O)c1)c1ccc2c(c1)C(=O)N(Cc1ccco1)C2=O	-2.1%	?	2.5	?	11	1.2
COCC(=O)OCC(=O)Nc1cc([N+](=O)[O-])ccc1Cl	-0.8%	/	-2.1	7	-4	1.0
Brc1ccccc1-n1nnc(-c2cccnc2)n1	0.5%	-11	-3.1	-11	-5	-0.5

Some of the entries above, reformatted:
Values in the order – PINK1 modulator | CtBP-E1A inh | D2 ag | Six1-Eya2 inh | D2 potentiator | TRPML1 agonist
> CC1=CC(C)(C)N2C(=O)C3(SCC(=O)N3c3ccc(F)cc3)c3cc(C)cc1c32 (stereo not given)
 : ? | -9 | -1.5 | -15 | -18 | 5.7
> COc1ccc(Cl)cc1N=Cc1c(O)c2ccccc2oc1=O
 : 1.0% | 2 | -1.1 | 13 | -3 | 0.4
> N#Cc1cn(Cc2ccccc2)c(=O)[nH]c1=O
 : 1.6% | -4 | 3.4 | -6 | -4 | 0.0
